Vaccinia inh: blocks a specific stage of Vaccinia orthopoxvirus infection, primary screen, cell-based, single point | hit rate 0.01% among 89,000 | Vaccinia-infected cells, mCherry/Venus stage reporter fluorescence; active compounds read low; some inactives read as strong as hits | activity change (mCherry), % (no concentration beside the values) | AID 1053133, 2014;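 active = mCherry past -33% and 40 or more points under the early reporter, replicates agreeing; inconclusive = past -33% without that gap or agreement; tested in A549 cells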;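 note: scaled between vehicle wells and reference inhibitor wells; 23 nL library stock went into each well; one replicate is shown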
Vaccinia inh Venus: recorded beside Vaccinia inh, whose call it bears; activity change (Venus), %; measured here: Venus reporter, other viral stage;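 negative = less Venus signal; first of two replicates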
* marks the source's active call; other numbers are inactive results; ? = inconclusive; . = no result given; & = joins results of further samples. Some of the compounds tested; rates above refer to the full screens.

Every second line gives: Vaccinia inh, Vaccinia inh Venus
C[C@H]1CN([C@@H](C)CO)C(=O)c2cc(NS(C)(=O)=O)ccc2O[C@H]1CN(C)CC1CCCCC1
    9.5, 11.6
CN(C)C(=O)c1cccc(-c2ccc([C@@H]3[C@@H](CO)N(C(=O)C4CCCC4)[C@H]3C#N)cc2)c1
    2.1, 2.9
COCC(=O)Nc1ccc2c(c1)C(=O)N(C)C[C@H](OC)[C@H](C)CN(C(=O)CC1CC1)[C@H](C)CO2
    1.8, 2.9
COc1cccc(NC(=O)N2[C@@H]3CNC[C@H]2C3c2ccc(-c3ccccc3)cc2)c1 (stereo partly specified)
    -7.8&-17.5, -2.3&-14.7
COc1ccccc1NC(=O)N[C@H]1C=C[C@H](CC(=O)N[C@H](C)c2ccccc2)O[C@@H]1CO
    -7.5, 2.0
C[C@H]1CN([C@@H](C)CO)C(=O)Cc2cc(NC(=O)Nc3ccc(C(F)(F)F)cc3)ccc2O[C@H]1CN(C)Cc1ccc(-c2ccccc2)cc1
    -28.1, -17.4
CC(C)NC(=O)N1[C@H](CO)[C@@H](c2ccc(C#CC3CCCCC3)cc2)[C@@H]1C#N
    ?, .
C[C@@H]1CN([C@@H](C)CO)S(=O)(=O)c2ccc(C#CC(C)(C)O)cc2O[C@@H]1CN(C)Cc1ccncc1
    8.6, 4.5
CN(C)C(=O)[C@H]1N[C@H]2c3ccc(-c4ccc(F)cc4)c(=O)n3C[C@H]2[C@@H]1CO
    0.5, 8.5
COc1ccc(-c2ccc([C@@H]3[C@@H](CO)N4CCCCN(C(=O)Cc5ccncc5)C[C@H]34)cc2)cc1
    -12.9, -2.9
C[C@H](CO)N1C[C@H](C)[C@@H](CN(C)S(=O)(=O)c2ccccc2)Oc2ccc(N(C)C)cc2C1=O
    4.5, 3.2
O=C(NCC[C@H]1CC[C@H](NS(=O)(=O)c2cccc(Cl)c2)[C@H](CO)O1)c1cnccn1
    8.4, 12.8
C[C@@H]1CCCCO[C@@H](CN(C)CC2CC2)[C@H](C)CN([C@H](C)CO)C(=O)c2cc(NC(=O)C3CCCCC3)ccc2O1
    11.5, -12.3
COc1ccc(CN(C)C[C@H]2Oc3ccc(NC(=O)Nc4ccc5c(c4)OCO5)cc3CC(=O)N([C@@H](C)CO)C[C@@H]2C)cc1
    -0.6, -2.8
N#C[C@H]1[C@H](c2ccc(-c3cncnc3)cc2)[C@@H](CO)N1C(=O)CN1CCOCC1
    11.5, 0.8
CC(C)NC(=O)N(C)C[C@@H]1Oc2ncc(-c3ccccc3F)cc2C(=O)N([C@H](C)CO)C[C@@H]1C
    5.8, -0.6
Cc1ccccc1-c1cnc2c(c1)C(=O)N([C@H](C)CO)C[C@@H](C)[C@@H](CN(C)C(=O)c1ccc(F)cc1)O2
    11.3, 4.2
C[C@H](CO)N1C[C@H](C)[C@H](CN(C)Cc2ccc3c(c2)OCO3)OCCCC[C@H](C)Oc2ccc(NS(=O)(=O)c3ccc(F)cc3)cc2C1=O
    ?, .
CCCNC(=O)N(C)C[C@H]1Oc2ncc(-c3ccc(F)cc3)cc2C(=O)N([C@H](C)CO)C[C@H]1C
    19.8, 9.7
COc1ccc(NC(=O)Nc2ccc3c(c2)C(=O)N([C@@H](C)CO)C[C@H](C)[C@@H](CN(C)C(=O)Nc2c(C)noc2C)O3)cc1
    14.9, 10.4
COc1ccc2c3c(n(C)c2c1)[C@H](CO)N(C(=O)CC1CC1)CC31CCN(C(=O)C2CC2)CC1
    9.9, 4.1
COc1ccc(-c2ccc3n(c2=O)C[C@@H]2[C@@H](CO)[C@H](C(=O)Nc4ccccc4)N(C)[C@H]32)cc1
    -8.3, 1.6
Cc1ccc(-c2ccc([C@H]3[C@@H](CO)N4C(=O)CN(C(=O)NC(C)C)C[C@@H]34)cc2)cc1
    -5.5, 5.9
C[C@@H]1CN([C@H](C)CO)C(=O)c2cc(NS(=O)(=O)c3cn(C)cn3)ccc2O[C@@H](C)CCCCO[C@@H]1CN(C)S(=O)(=O)c1cccs1
    8.6, -3.6
C[C@@H]1CN([C@@H](C)CO)C(=O)Cc2cc(NC(=O)CCCN(C)C)ccc2O[C@H]1CN(C)Cc1ccc(-c2ccccc2)cc1
    -33.4, -24.3
COc1ccc(NC(=O)Nc2ccc3c(c2)OC[C@H](C)NC[C@H](C)[C@H](OC)CN(C)C3=O)cc1
    7.6, 7.7
C[C@H](CO)N1C[C@H](C)[C@H](CN(C)Cc2ccncc2)OCCCC[C@H](C)Oc2ccc(NC(=O)Nc3cccc4ccccc34)cc2C1=O
    11.6, -0.4
CNC[C@H]1Oc2ccc(NC(=O)Nc3cccc4ccccc34)cc2C(=O)N([C@@H](C)CO)C[C@H]1C
    10.1, 4.5
COCC(=O)N1CC(=O)N2[C@H](CO)[C@@H](c3ccc(-c4ccccc4F)cc3)[C@@H]2C1
    -7.7, -2.0
C[C@H](CO)N1C[C@H](C)[C@H](CN(C)C(=O)C2CCOCC2)Oc2ncc(-c3cccc(F)c3)cc2C1=O
    16.2, 11.5

Rewritten as tab-separated lines: part of the list above
Molecule	Vaccinia inh	Vaccinia inh Venus
CN(C)C(=O)c1cccc(-c2ccc([C@@H]3[C@@H](CO)N(C(=O)C4CCCC4)[C@H]3C#N)cc2)c1	2.1	2.9
COCC(=O)Nc1ccc2c(c1)C(=O)N(C)C[C@H](OC)[C@H](C)CN(C(=O)CC1CC1)[C@H](C)CO2	1.8	2.9

Additional results
Every second line gives: Vaccinia inh, Vaccinia inh Venus
COc1ccc(NC(=O)N(C)C[C@H]2Oc3ncc(C#C[C@@H](C)O)cc3C(=O)N([C@H](C)CO)C[C@@H]2C)cc1
    22.2, 8.9
COCC(=O)Nc1ccc2c(c1)C(=O)N(C)C[C@@H](OC)[C@@H](C)CN(C(=O)c1cnccn1)[C@@H](C)CO2
    -3.2, -0.4
C[C@H]1CCCCO[C@@H](CN(C)C(=O)c2ccccc2)[C@@H](C)CN([C@@H](C)CO)C(=O)c2cc(NS(=O)(=O)c3cccs3)ccc2O1
    5.0, -4.8
COc1ccc(CN(C)C[C@@H]2Oc3ccc(NC(=O)Nc4cccc5ccccc45)cc3C(=O)N([C@H](C)CO)C[C@@H]2C)cc1
    -23.5, -21.9
O=C(C[C@@H]1CC[C@H]2[C@@H](COC[C@@H](O)CN2C(=O)c2ccc(F)cc2)O1)N1CCOCC1
    6.6, -1.5
CCNC(=O)Nc1ccc2c(c1)C(=O)N(C)[C@@H]1CC[C@@H](CC(=O)NCC3CCCCC3)O[C@@H]1CO2
    5.1, 10.5
C[C@H](CO)N1C[C@H](C)[C@H](CN(C)C(=O)C2CC2)Oc2ncc(-c3cccc(C#N)c3)cc2C1=O
    35.9, 10.1
C[C@@H]1CN([C@@H](C)CO)C(=O)c2cc(Br)cnc2O[C@H]1CN(C)Cc1ccccc1C(=O)O
    2.4, -2.7
C[C@H](CO)N1C[C@H](C)[C@H](CN(C)C(=O)Nc2ccccc2)Oc2ncc(/C=C/c3ccccc3)cc2C1=O
    ?, .
C[C@@H]1CN([C@H](C)CO)C(=O)Cc2cc(NS(=O)(=O)c3cccs3)ccc2O[C@H]1CN(C)Cc1ccc(C(=O)Nc2ccccc2N)cc1
    25.2, 7.8
Cc1noc(C)c1NC(=O)N(C)C[C@H]1Oc2ccc(NC(=O)C3CC3)cc2C(=O)N([C@H](C)CO)C[C@@H]1C
    0.9, 4.0
C[C@H](CO)N1C[C@H](C)[C@H](CN(C)C(=O)Oc2cccc3ccccc23)OCc2cnnn2CCCC1=O
    6.1, 6.6
NC(=O)[C@H]1[C@@H]2C(=O)O[C@@H](c3ccccc3)[C@@H](c3ccccc3)N2[C@@H](c2ccc(OCCO)cc2)[C@]12C(=O)Nc1ccccc12
    9.1, 4.4
Cc1ccc(-c2ccc3c(c2)O[C@H](CN(C)Cc2ccccn2)[C@H](C)CN([C@H](C)CO)S3(=O)=O)cc1
    ?, .
CN(C)C(=O)C[C@H]1C[C@H]2c3cc(NC(=O)Nc4ccc(C(F)(F)F)cc4)ccc3O[C@H]2[C@H](CO)O1
    -29.3, -13.1
C[C@@H]1CN([C@H](C)CO)C(=O)c2cc(C#CC(C)(C)O)cnc2O[C@@H]1CN(C)C(=O)CN(C)C
    20.0, 8.6
CCCNC(=O)N1[C@H](CNC(=O)c2ccc(F)cc2)[C@H](c2ccccc2)[C@@H]1CO
    -13.1, -11.2
CO[C@H]1CN(C)C(=O)c2ccc(NS(=O)(=O)c3ccccc3C)cc2OC[C@@H](C)N(C)C[C@H]1C
    8.4, 21.2
CC(C)(C)[S@](=O)N1Cc2cc(C(=O)NCc3ccc4c(c3)OCO4)nc(-c3cccc(-c4ccncc4)c3)c2[C@@H]1CCO
    ?, .
C[C@H](CO)N1C[C@H](C)[C@H](CN(C)Cc2ccc(C(=O)O)cc2)Oc2ccc(NS(=O)(=O)c3ccc(F)cc3)cc2C1=O
    21.1, 11.7
C[C@H](CO)N1C[C@H](C)[C@H](CN(C)S(C)(=O)=O)Oc2ccc(NC(=O)NC3CCCCC3)cc2CC1=O
    -4.7, -1.6
CN1c2ccc(-c3cccc(F)c3)cc2[C@@H]2[C@@H](CCN2C(=O)Nc2ccccc2F)[C@@H]1CO
    ?, .
O=C(Nc1cccc(Cl)c1)N[C@H]1CC[C@H](CCNC(=O)C2CCC2)O[C@@H]1CO
    -1.6, 6.0
Cc1ccc(S(=O)(=O)N(C)C[C@@H]2OCCCC[C@@H](C)Oc3ccc(NC(=O)Nc4ccc(C(F)(F)F)cc4)cc3C(=O)N([C@@H](C)CO)C[C@H]2C)cc1
    -20.3, -2.2
CCNC(=O)[C@@H]1[C@@H](CO)[C@@H]2Cn3c(ccc(-c4ccccc4F)c3=O)[C@@H]2N1CC
    10.3, 4.5
C[C@H]1CN([C@@H](C)CO)S(=O)(=O)c2ccc(Br)cc2O[C@@H]1CN(C)Cc1ccccc1
    ?, -22.9
Cc1ccc(S(=O)(=O)N(C)C[C@@H]2OCCCC[C@@H](C)Oc3ccc(NS(=O)(=O)c4ccc(Cl)cc4)cc3C(=O)N([C@@H](C)CO)C[C@H]2C)cc1
    ?, .
CC(C)NC(=O)N(C)C[C@H]1Oc2ccc(NC(=O)NC3CCCCC3)cc2CC(=O)N([C@@H](C)CO)C[C@H]1C
    -3.8, -11.7
CO[C@@H]1CN(C)C(=O)c2ccc(NC(=O)C3CCOCC3)cc2OC[C@@H](C)N(C(=O)Nc2ccc(C(F)(F)F)cc2)C[C@H]1C
    -4.2, 1.5
C[C@H](NC(=O)C[C@@H]1CC[C@H](NC(=O)C2CC2)[C@@H](CO)O1)c1ccccc1
    23.0, 10.6
C[C@@H]1CN([C@@H](C)CO)C(=O)c2c(c3ccccc3n2C)-c2ccccc2CO[C@@H]1CN(C)C(=O)Nc1ccccc1
    -24.8, -26.1
C[C@H](CO)N1C[C@H](C)[C@@H](CN(C)C(=O)Nc2ccc3c(c2)OCO3)Oc2ccc(NC(=O)CCN3CCOCC3)cc2CC1=O
    6.8, 9.1
C[C@H]1CCCCO[C@H](CN(C)Cc2ccc(C(F)(F)F)cc2)[C@@H](C)CN([C@@H](C)CO)C(=O)c2cc(NC(=O)CCCN(C)C)ccc2O1
    ?, .
O=C(CC1CC1)N1CC(=O)N2[C@H](CO)[C@@H](c3ccc(C#Cc4cccc(F)c4)cc3)[C@@H]2C1
    ?, .
CC(C)NC(=O)NCC[C@@H]1CC[C@H](NC(=O)CN(C)C)[C@H](CO)O1
    8.6, 4.1
Cc1noc(C)c1NC(=O)N(C)C[C@@H]1Oc2ccc(NC(=O)Nc3cccc4ccccc34)cc2C(=O)N([C@H](C)CO)C[C@@H]1C
    11.9, 6.0
COc1ccc2c3c([nH]c2c1)[C@H](CO)N(S(=O)(=O)c1ccccc1)CC31CCN(C)CC1
    ?, .
C[C@@H]1CN([C@H](C)CO)C(=O)c2cc(-c3cccnc3)cnc2O[C@@H]1CN(C)C(=O)Nc1ccccc1
    3.0, -2.8
COc1ccc(NC(=O)N(C)C[C@H]2Oc3ncc(Br)cc3C(=O)N([C@H](C)CO)C[C@@H]2C)cc1
    7.1, 6.3
COc1ccccc1-c1ccc([C@@H]2[C@@H](CO)N(C(=O)CN(C)C)[C@H]2C#N)cc1
    -21.3, -15.4
CO[C@@H](CN(C)C(=O)c1ccc2c(c1)OCO2)[C@H](C)CN([C@@H](C)CO)S(=O)(=O)c1ccc(Cl)cc1
    -3.0, -2.2
COc1ccc(NC(=O)N(C)C[C@@H]2Oc3c(NC(=O)NC4CCCCC4)cccc3C(=O)N([C@H](C)CO)C[C@@H]2C)cc1
    -5.7, 3.4
N#C[C@H]1[C@@H](c2ccc(C#CCC3CCCC3)cc2)[C@H](CO)N1C(=O)CN1CCOCC1
    -14.2, -16.1
C[C@@H]1CN([C@H](C)CO)C(=O)c2cccc(NC(=O)Nc3ccc4c(c3)OCO4)c2O[C@@H]1CN(C)Cc1ccc(Oc2ccccc2)cc1
    -30.1, -19.7
COc1ccc(S(=O)(=O)N(C)C[C@H]2Oc3c(NC(=O)C4CCOCC4)cccc3C(=O)N([C@@H](C)CO)C[C@@H]2C)cc1
    11.6, -0.5
CC(C)NC(=O)N(C)C[C@H]1OCCCC[C@H](C)Oc2ccc(NS(=O)(=O)c3ccccc3)cc2C(=O)N([C@@H](C)CO)C[C@@H]1C
    8.0, 3.6
CCCC(O)C#Cc1cnc2c(c1)C(=O)N([C@H](C)CO)C[C@H](C)[C@H](CN(C)C(=O)Nc1ccc3c(c1)OCO3)O2 (stereo partly specified)
    31.3, 17.1
COc1ccc(NC(=O)N(C)C[C@H]2OCCCC[C@@H](C)Oc3ccc(NC(=O)Cc4ccccc4)cc3C(=O)N([C@H](C)CO)C[C@@H]2C)cc1
    7.6, -6.5
